HSV replic up: increases HSV replication in cells; HSV replication augmentation in cells, fold increase; maximum fold increase; 220,000 tested, 0.005% active;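 active = peak rise of 1.5-fold or more in the series; tested in PC3 cells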;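 also: first round at 10 µM; read as green reporter fluorescence; hits show the peak of a series up to 25 µM; 1 = signal of infected wells without compound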
INS promoter inh: TRM-6 insulin promoter activity inhibition. TRM-6 cells (human fetal islet line), insulin promoter-eGFP reporter, imaging; reporter expression induced with tamoxifen. 130,000 tested, 0.9% active. AID 1273. inhibition, % at 2 µM;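 active = inhibition above the mean plus 3 SD, with well images judged a real hit on visual review, cut at about 60% in these data, passing the limit was not always enough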
PKD1 kinase inh: blocks activity of human protein kinase D1 | Q15139 | PKD1 kinase fluorescence polarization assay | inhibition, %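 (about 10 µM by stock and volumes)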 | 200,000 tested, 0.056% active | AID 797;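 active = inhibition of 50% or more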;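 also: controls were vehicle for no effect and a reference inhibitor for full effect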
RGS16-Gao: modulates binding between human RGS16 and Galphao. bead-based flow cytometry RGS16-Galphao binding, fluorescence; actives lie on both sides. O15492+P09471. AID 1441. binding response (% of control), % at 10 µM. 220,000 tested, 0.38% active;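 active = below 25% or above 175%, edge rows of some plates excepted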;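 also: Galphao activated by GDP with aluminum fluoride before binding; 100% = wells without compound and 0% = beads without RGS; some results beyond the cut were filed as inactive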
Target sequence (O15492 whole entry, looked up): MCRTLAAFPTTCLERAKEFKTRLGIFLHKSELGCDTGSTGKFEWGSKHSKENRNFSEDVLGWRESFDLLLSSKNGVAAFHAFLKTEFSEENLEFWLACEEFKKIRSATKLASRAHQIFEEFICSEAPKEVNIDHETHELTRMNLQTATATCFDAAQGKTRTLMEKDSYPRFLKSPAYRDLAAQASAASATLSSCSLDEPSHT
Target sequence (P09471 whole entry, looked up): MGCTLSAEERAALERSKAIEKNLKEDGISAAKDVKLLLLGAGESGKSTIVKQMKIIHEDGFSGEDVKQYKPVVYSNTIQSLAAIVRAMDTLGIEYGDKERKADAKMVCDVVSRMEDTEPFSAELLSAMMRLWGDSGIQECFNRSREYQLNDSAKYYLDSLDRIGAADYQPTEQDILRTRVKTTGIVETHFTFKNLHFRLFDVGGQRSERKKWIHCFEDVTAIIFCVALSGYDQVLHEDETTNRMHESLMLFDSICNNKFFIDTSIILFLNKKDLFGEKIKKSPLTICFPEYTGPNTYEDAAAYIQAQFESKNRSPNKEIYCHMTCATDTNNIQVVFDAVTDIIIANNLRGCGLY
GALR2 agonist: GALR2 (human) receptor agonism. O43603. GALR2-expressing cells, agonist activation read-out. activation, %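 (tested at 5 µM)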. 140,000 tested, 0.48% active. AID 803;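 active = above mean plus 3 SD of all compounds, about 5% in these data, not always enough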;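 also: 0% = vehicle buffer wells and 100% = reference agonist at full effect; tested in CHO reporter cells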
Target sequence (O43603 whole entry, looked up): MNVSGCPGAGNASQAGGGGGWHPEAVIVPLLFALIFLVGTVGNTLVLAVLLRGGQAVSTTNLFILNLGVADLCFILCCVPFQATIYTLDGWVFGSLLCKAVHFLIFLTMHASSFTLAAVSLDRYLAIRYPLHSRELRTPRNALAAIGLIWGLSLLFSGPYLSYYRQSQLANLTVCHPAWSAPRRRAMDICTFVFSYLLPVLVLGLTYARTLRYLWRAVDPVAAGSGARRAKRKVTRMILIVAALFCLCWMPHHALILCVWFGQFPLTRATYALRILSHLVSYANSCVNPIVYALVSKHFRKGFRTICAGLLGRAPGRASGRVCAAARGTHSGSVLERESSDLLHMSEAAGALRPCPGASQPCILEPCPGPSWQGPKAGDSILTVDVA
INS promoter inh cell count: further read-out of INS promoter inh, marked with its call; normalized cell count, %; measured here: cell count, toxicity; reference of the scale not given here;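 cells exposed to compound for 48 h; stained nuclei by imaging scaled within each plate; lower means fewer cells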
HSV replic up primary fold: further read-out of HSV replic up, marked with its call; fold increase; compound at 10 µM; measured here: primary screen fold increase 10 uM; tested in PC3 cells;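 GFP signal in the first replicate; 1 = infected wells without compound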
The depositor's hits bear a star; i = inactive; x = not tested or not shown.

Screens in order – HSV replic up	HSV replic up primary fold	INS promoter inh	INS promoter inh cell count	PKD1 kinase inh	RGS16-Gao	GALR2 agonist
> CC(C)(C)N(NC(=O)Nc1ccc(F)cc1)C(=O)c1ccccc1
→ i	0.95	27	87	5	104	-1.3
> O=C(c1ccc(Cl)cc1)N1N=C(c2ccccn2)CC1(O)C(F)(F)F (stereo unspecified)
→ i	0.82	x	x	x	96	x
> CCN(CC)C(=O)Oc1ccnc2cc(Cl)ccc12
→ i	0.92	x	x	-2	103	x
> O=C(NC(Cc1c[nH]c2ccccc12)C(=O)N/N=C/c1cccnc1)c1cccs1 (stereo unspecified)
→ i	0.83	-488	131	-3	99	x
> O=S(=O)(Nc1ccc2c(c1)OCO2)c1cccs1
→ i	0.98	x	x	-2	99	-0.3
> CN(C)C(C)(C)C#CCCCCC#CC(C)(C)N(C)C
→ i	0.95	71*	71*	0	106	-0.6
> CN1CCN(C(=O)c2ccccc2NC(=O)Cc2ccccc2)CC1
→ i	1	x	x	-6	101	-0.9
> O=C(/C=C/c1ccccc1Cl)NCc1cccs1
→ i	1	-178	1	9	110	0.1
> CCc1ccc(NC(=O)C(=O)NCCN2CCN(Cc3ccc([N+](=O)[O-])cc3)CC2)cc1
→ i	0.96	-62	107	-10	95	-2.3
> CC(C(=O)NCc1ccco1)n1cc([N+](=O)[O-])cn1 (stereo unspecified)
→ i	0.81	0	105	4	100	x
> Cc1ccc(N/N=C/c2c(O)cc(C)oc2=O)cc1
→ i	1.1	17	132	-12	101	-2.3
> O=C(O)C1(NS(=O)(=O)c2ccc(F)c(Cl)c2)CCCCC1
→ i	0.85	-15	57	-8	70	-1.4
> COc1ccc(-c2cc(-c3ccccc3)c(C#N)c(S(C)=O)n2)cc1 (stereo unspecified)
→ i	0.56	x	x	4	99	27*
> Cc1cc(/C=N/NS(=O)(=O)c2ccc(F)c(Cl)c2)no1
→ i	1.2	x	x	x	97	x
> CCOC(=O)c1c(-c2ccccc2)csc1NC(=O)CCN1CCOCC1
→ i	0.89	-29	103	-7	98	-0.5
> CCOC(=O)C1CCCN(C(=O)Cn2cnc3c2c(=O)n(C)c(=O)n3C)C1 (stereo unspecified)
→ i	1.2	x	x	-9	100	-2.5
> CCc1cc2c(NCCC(=O)O)nc(C)nc2s1
→ i	1.1	18	96	-5	96	-1.0
> CC(=O)Nc1ccc2nc(SCC(=O)NCCOc3ccccc3)sc2c1
→ i	0.98	12	129	0	100	x
> Cc1ccc(C(=O)N2CCN3C(=O)c4ccccc4C23c2ccccc2)cc1 (stereo unspecified)
→ i	0.84	x	x	-6	99	x
> NS(=O)(=O)c1cccc(NC(=O)COC(=O)C2CCN(S(=O)(=O)c3cccs3)CC2)c1
→ i	0.98	x	x	x	104	x
> C=CCn1c(SCC(=O)N2CCN(c3ccc(F)cc3)CC2)nnc1-c1ccco1
→ i	0.97	x	x	-10	103	-0.3
> CCNS(=O)(=O)c1ccc(NC(=O)Nc2ccccc2OC)cc1
→ i	0.8	x	x	-3	100	x
> CC1(c2nnc(Cc3ccccc3)o2)CC(c2cccc(Cl)c2)=NO1 (stereo unspecified)
→ i	0.96	x	x	x	102	x
> O=S1(=O)CCN(Cc2cccc(C(F)(F)F)c2)CC1
→ i	0.91	13	86	-1	111	x
> COC(=O)c1onc(-c2c(Cl)cccc2Cl)c1C(=O)OC
→ i	1.1	x	x	x	99	x
> O=C(NCc1ccco1)c1cc(-c2ccccc2)c(N2CCOCC2)s1
→ i	0.99	x	x	-2	88	-0.2
> COC(=O)c1ccc(CSc2ncnc3c2oc2ccccc23)o1
→ i	0.72	x	x	-18	103	-1.1
> CCN(CC)CCNC(=O)c1ccc(-n2c(C)cc3c2CCCC3=O)cc1
→ i	0.85	x	x	-6	98	x
> CCOC(=O)C1C(=O)CC(C)(O)C(C(=O)OCC)C1c1ccc(NC(C)=O)cc1 (stereo unspecified)
→ i	1	-25	48	4	1	x
> CC(C)CN1C(=O)c2ccc(NC(=O)Cc3ccccc3)cc2C1=O
→ i	0.96	x	x	-6	100	x
> COc1ccc(NC(=O)N2CCCC(c3nc(-c4ccc(F)cc4)no3)C2)cc1 (stereo unspecified)
→ i	0.89	0	98	5	94	x
> O=C(Cc1cccs1)N(Cc1cccs1)C1(C(=O)NC2CCCCC2)CCCCC1
→ i	1	-30	125	0	100	-0.8
> Cc1cccc(NC(=S)c2nc3ccccc3s2)c1
→ x	x	x	x	2	100	-3.1
> CN1C(=O)NC(c2ccccc2)C2=C1CN(Cc1ccco1)C2=O (stereo unspecified)
→ i	1	x	x	-1	106	-1.0
> Cc1[nH]c2ccccc2c1/C=N/NC(=O)c1cccc(F)c1
→ i	0.94	x	x	-1	100	x
> COc1cc([N+](=O)[O-])ccc1NC(=O)/C=C\C(=O)O
→ i	0.94	x	x	-1	109	x
> O=S(=O)(NCCCc1ccccc1)c1ccccc1
→ i	0.95	1	126	-2	100	-2.0
> O=[N+]([O-])c1cccc(/C=N/Nc2ccccn2)c1
→ i	0.9	-7	54	-3	104	x
> COC(=O)CCC(=O)c1oc2ccc(Br)cc2c1N
→ i	0.87	-60	52	1	102	-3.2
> COc1ccc(C(NC(=O)c2ccc(F)cc2)c2ccccc2)cc1 (stereo unspecified)
→ i	1.1	x	x	0	105	-0.7
> CC1CCN(C(=O)Cn2ncc3c4ccccc4n(C)c3c2=O)CC1
→ i	1	x	x	x	103	x
> Cc1cc[n+](-c2ccccc2)c2ccccc12
→ i	0.92	x	x	-4	106	x
> Cc1ccccc1OCCN1CCC(Cc2ccccc2)CC1
→ i	0.85	x	x	-4	96	x
> Cc1c(N=Cc2ccco2)c(=O)n(-c2ccccc2)n1C
→ i	0.92	x	x	2	97	-1.8
> Cc1cc(C(=O)CC#N)c(C)n1-c1ccc(OC(F)F)cc1
→ i	1.1	x	x	-3	100	-2.0

A second format for some results above:
smiles	HSV replic up	HSV replic up primary fold	INS promoter inh	INS promoter inh cell count	PKD1 kinase inh	RGS16-Gao	GALR2 agonist
COC(=O)CCC(=O)c1oc2ccc(Br)cc2c1N	i	0.87	-60	52	1	102	-3.2
COc1ccc(C(NC(=O)c2ccc(F)cc2)c2ccccc2)cc1 (stereo unspecified)	i	1.1	x	x	0	105	-0.7
CC1CCN(C(=O)Cn2ncc3c4ccccc4n(C)c3c2=O)CC1	i	1	x	x	x	103	x
Cc1cc[n+](-c2ccccc2)c2ccccc12	i	0.92	x	x	-4	106	x

(continued)
Screens in order – HSV replic up	HSV replic up primary fold	INS promoter inh	INS promoter inh cell count	PKD1 kinase inh	RGS16-Gao	GALR2 agonist
> O=C(C1=C[C@H](C2CC2)C[C@H](OCCCCO)O1)N1CCOCC1
→ i	0.88	x	x	-2	100	x
> COc1cccc(NS(=O)(=O)c2nc3nc(C)cc(C)n3n2)c1
→ i	1	x	x	-4	102	-2.1
> Cc1cc(C(=O)COC(=O)Cc2n[nH]c(=O)c3ccccc23)c(C)n1-c1ccc2c(c1)OCO2
→ i	0.88	3	120	5	108	0.0
> CCCN=C(C)C1=C(O)c2ccccc2C1=O
→ i	0.91	11	116	-22	98	-2.2
> Cc1ccc(S(=O)(=O)N(CC(=O)O)c2ccc(Cl)c(C(F)(F)F)c2)cc1
→ i	0.98	x	x	2	105	x
> CS(=O)(=O)c1ccc2nc(NC(=O)C3COc4ccccc4O3)sc2c1 (stereo unspecified)
→ i	0.95	14	142	-8	81	-1.4
> O=C1CN(C(=O)COC(=O)Cc2ccsc2)c2ccccc2N1
→ i	0.78	-42	82	-5	98	-1.9
> Cc1ccsc1-c1nc(CSCC(=O)NCc2ccc3c(c2)OCO3)c(C)o1
→ x	x	x	x	6	98	0.3
> O=C1CSC(c2ccccc2)N1c1cccnc1 (stereo unspecified)
→ i	0.84	x	x	x	107	x
> O=C(NCCNC(=O)C1CC2CCC1C2)C1CC2CCC1C2 (stereo unspecified)
→ i	0.85	-16	101	-3	111	-0.8
> O=C(O)C1CC=CCC1C(=O)Nc1ccccc1C(=O)N1CCN(c2ccc(F)cc2)CC1 (stereo unspecified)
→ i	1	x	x	-5	116	-0.7
> COC(=O)C1=C(C)NC(=O)CC1c1ccccc1 (stereo unspecified)
→ i	0.95	16	112	-6	94	0.2
> CN(C)C(=O)Cn1c(SCC(=O)N2CCCc3ccccc32)nc2ccccc21
→ i	0.94	x	x	-5	89	-0.9
> Cc1cc(C)n(CC(=O)n2nc(C)cc2C)n1
→ x	x	0	124	-4	102	-2.0
> O=C(O)/C=C/C(=O)Nc1cccnc1
→ i	1.1	x	x	4	115	-1.9

GALR2 agonist: what is marked active above.
Compound,HSV replic up,HSV replic up primary fold,PKD1 kinase inh,RGS16-Gao,GALR2 agonist
COc1ccc(-c2cc(-c3ccccc3)c(C#N)c(S(C)=O)n2)cc1 (stereo unspecified),i,0.56,4,99,27*

More structures:
Screens in order – HSV replic up	HSV replic up primary fold	INS promoter inh	INS promoter inh cell count	PKD1 kinase inh	RGS16-Gao	GALR2 agonist
> CN(C)c1nc(Nc2ccccc2)nc(Oc2ccc(=O)[nH]n2)n1
→ i	0.98	-5	86	-9	99	-1.1
> NC(=O)CN1C(=O)/C(=c2\sc3nc(=O)c(Cc4ccccc4)nn3c2=O)c2ccccc21
→ i	0.97	x	x	x	96	x
> Cc1cc(C)c2c(N)c(C(=O)NN)sc2n1
→ i	0.94	x	x	x	103	x
> O=C(NCc1cccnc1)Nc1cccc(NC(=O)NCc2cccnc2)c1F
→ i	0.93	x	x	x	104	x
> O=C(COC(=O)c1ccccc1)NCCC1=CCCCC1
→ i	0.97	67	109	-3	107	x
> O=C(Cc1ccccc1)Nc1c2c(nn1-c1cccc(Cl)c1)CS(=O)(=O)C2
→ i	0.84	-91	120	-2	99	-1.8
> CC(=O)Nc1ccc(S(=O)(=O)NC(C)C(=O)NC(C)c2ccccc2)cc1 (stereo unspecified)
→ i	0.97	x	x	-5	99	x
> O=S(=O)(c1cccc(-c2nnc(-c3ccc(Br)cc3)o2)c1)N1CCCCCC1
→ i	1.1	x	x	4	98	-0.3
> Nc1ccc(Cc2ccc(N)c(O)c2)cc1O
→ i	0.76	-39	144	-3	82	x
> COc1ccc([N+](=O)[O-])cc1N(CC(=O)NC1CCCC1)S(C)(=O)=O
→ i	1.1	7	81	-12	105	x
> Cc1nc(NC(=O)c2ccccc2)sc1-c1csc(NCc2ccco2)n1
→ i	0.92	-14	99	-8	95	-2.8
> O=c1ccnc(SCn2nnc3ccccc3c2=O)[nH]1
→ i	1.3	24	77	-2	103	-4.3
> O=c1[nH]c(SCc2ccc(F)cc2)nc2c1cnn2-c1ccc(F)cc1
→ i	0.97	x	x	3	x	-1.6
> O=C(NCc1ccco1)C1CCCN1C(=O)Nc1ccccc1Cl (stereo unspecified)
→ i	1.1	-11	95	-5	98	x
> CCOC(=O)C1CCN(Cc2nc3ccccc3c(=O)n2-c2ccc(F)cc2)CC1
→ x	x	-29	82	-1	103	1.5

Looked up above.
Result of O=c1ccnc(SCn2nnc3ccccc3c2=O)[nH]1 in HSV replic up primary fold: 1.3
Result of Nc1ccc(Cc2ccc(N)c(O)c2)cc1O in HSV replic up primary fold: 0.76
Result of CC(=O)Nc1ccc(S(=O)(=O)NC(C)C(=O)NC(C)c2ccccc2)cc1 (stereo unspecified) in HSV replic up primary fold: 0.97
Result of CCOC(=O)C1CCN(Cc2nc3ccccc3c(=O)n2-c2ccc(F)cc2)CC1 in PKD1 kinase inh: -1

Remaining list, next part:
Screens in order – HSV replic up	HSV replic up primary fold	INS promoter inh	INS promoter inh cell count	PKD1 kinase inh	RGS16-Gao	GALR2 agonist
> CCOc1ccc(C2c3[nH]c4ccccc4c3CCN2Cc2cccn2-c2ncccn2)cc1 (stereo unspecified)
→ i	1.1	x	x	x	95	x
> CN(C)NC(=S)NC(=O)C12CC3CC(CC(C3)C1)C2
→ i	0.87	x	x	-1	96	x
> CCOC(=O)C1=C(C)NC(=O)NC1c1cc(C)sc1C (stereo unspecified)
→ i	1	5	122	4	103	-2.5
> CC(C)N(C(=S)Nc1cccc(C(F)(F)F)c1)C(C)c1ccccn1 (stereo unspecified)
→ i	0.98	7	86	-5	104	x
> COc1ccc2[nH]c(=O)c(CN(Cc3cccs3)C(=S)Nc3cccc(C)c3)cc2c1
→ i	0.88	30	66	-10	122	-0.5
> CCc1c(C)sc(NC(=O)c2ccco2)c1C(=O)N1CCCCC1
→ i	0.86	-13	236	-1	95	0.6
> O=C1CCN(S(=O)(=O)c2ccccc2)CCN1CCOCc1cccc(F)c1
→ i	0.99	x	x	x	107	x
> COc1cccc(N2C(=O)C(Cc3c[nH]c4ccccc34)NC2=S)c1 (stereo unspecified)
→ i	1	-25	138	-9	104	-1.2
> CN(C)S(=O)(=O)c1ccc(C(=O)Oc2ccccc2)cc1
→ i	1.1	-38	89	2	99	-2.2
> NC(=O)N/N=C\c1cc(Br)ccc1O
→ i	0.91	-28	132	4	105	0.3

From PubChem BioAssay

The order is random; any-hit rate near 1.1%.
